Source: PubChem BioAssay
Six1-Eya2 blk: qHTS Assay for Inhibitors of the Six1/Eya2 Interaction | AlphaScreen GST-Six1/His-Eya2 binding, biochemical; active compounds read low; control for the full effect not named in the record | hit rate 0.56% among 360,000 | activity change, % (test concentration not listed) | Homeobox protein SIX1 (Homo sapiens) + Protein phosphatase EYA2 (Homo sapiens), …; in the data active = activity change below about -65%; inconclusive = about -30% to -65%; inactive = above about -30%; note: % is set by controls: 0 for no effect and ±100 for the full control effect
Target sequence (O00167 whole entry, looked up): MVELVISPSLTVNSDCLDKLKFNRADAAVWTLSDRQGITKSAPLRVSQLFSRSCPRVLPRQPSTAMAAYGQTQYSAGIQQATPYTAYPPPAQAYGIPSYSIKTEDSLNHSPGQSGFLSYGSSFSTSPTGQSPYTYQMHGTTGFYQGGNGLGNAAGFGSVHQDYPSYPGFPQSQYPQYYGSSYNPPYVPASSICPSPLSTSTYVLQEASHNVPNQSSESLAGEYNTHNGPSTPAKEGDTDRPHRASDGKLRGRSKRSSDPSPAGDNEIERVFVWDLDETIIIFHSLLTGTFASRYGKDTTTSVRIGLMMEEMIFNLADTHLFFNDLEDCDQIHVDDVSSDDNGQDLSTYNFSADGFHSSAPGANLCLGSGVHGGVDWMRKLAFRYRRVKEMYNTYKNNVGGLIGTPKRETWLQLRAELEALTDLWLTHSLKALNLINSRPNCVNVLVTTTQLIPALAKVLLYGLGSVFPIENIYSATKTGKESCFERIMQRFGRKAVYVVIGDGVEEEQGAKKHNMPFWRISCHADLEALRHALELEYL
Target sequence (Q15475 whole entry, looked up): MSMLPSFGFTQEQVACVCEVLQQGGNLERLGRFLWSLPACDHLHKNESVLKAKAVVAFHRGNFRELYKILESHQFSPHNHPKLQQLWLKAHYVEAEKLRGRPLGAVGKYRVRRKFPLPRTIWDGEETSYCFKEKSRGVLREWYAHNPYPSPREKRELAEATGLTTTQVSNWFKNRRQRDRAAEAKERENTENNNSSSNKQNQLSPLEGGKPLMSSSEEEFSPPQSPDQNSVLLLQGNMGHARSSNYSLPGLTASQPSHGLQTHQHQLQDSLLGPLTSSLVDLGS
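GST-Six1 + His-Eya2 (5X stock: 250/500 nM); Tris pH 8.0, 300 mM NaCl, 0.05% BSA, 0.02% Tween 20; GSH donor/Ni acceptor beads; 1 h 37 °C dark; AlphaScreen readout.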
Sfp PPTase inh: qHTS Assay for Inhibitors of Bacillus subtilis Sfp phosphopantetheinyl transferase (PPTase) | hit rate 3.5% among 310,000 | Biochemical Sfp PPTase activity, qHTS | 4'-phosphopantetheinyl transferase ffp (Bacillus subtilis), Q9F4F7 | AID 1490, 2009 | Potency, µM, for the others: max response, negative = inhibition, most hits filed as inhibitors; active = well fitted inhibition curve with a large enough effect; inconclusive = small, poorly fitted or top-dose-only effect, or another doubt; inactive = no such curve, though single readings can be large or run the other way;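 note: the enzyme is Sfp with the accession as filed and its product quenches rhodamine fluorescence; potency is the fitted concentration of half-maximal effect; 0% = enzyme reaction without inhibitor and -100% = no enzyme wells; top concentration of the series not given in the record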
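Fluorescence-quenching assay with 15 nM Sfp, 5 uM rhodamine-CoA and 12.5 uM BHQ-2-labelled ybbR peptide in pH 7.6 Hepes/MgCl2 buffer. Enzyme was pre-incubated with compound for 15 min at room temperature. Rate was taken from the 30-min fluorescence change (525/598 nm).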
TRPV1 potentiator: HTS Assay for Compounds that Act as Potentiators of the Vanilloid Receptor 1 | TRPV1-expressing cells, Fluo-8 calcium influx, capsaicin EC20 potentiation; host cell line not named in the record; control for the full effect not named in the record | potentiation, % at 8.33 µM | hit rate 0.02% among 320,000 | AID 540277, 2011; active means potentiation above 80%; inconclusive means 30% to 80%; inactive means below 30%; note: 0% is about no effect
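Cells expressing TRPV1 were dye-loaded with Fluo-8 and read kinetically: 10 s baseline, 3 min after compound (agonist portion), then 2 min after EC20 capsaicin (allosteric enhancer portion). Calcium-bound dye fluorescence at 480/520 nm.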
D2 potentiator: Beta-Arrestin HTS for Positive Allosteric Modulators of the Human D2 Dopamine Receptor: Potentiators; hit rate 0.23% among 360,000; DiscoveRx D2 beta-arrestin cells, luminescence, 90 min; 100% = 57 uM dopamine signal; potentiation, % (concentration not given with the values); D(2) dopamine receptor (Homo sapiens), P14416; active = potentiation of 50% or more; inconclusive = 30% to 50%; inactive = 30% or less;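 note: compound concentration not given in the record; tested on top of an EC20 dose of dopamine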
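D2 cells co-treated with compound plus 50 nM dopamine (EC20) for 90 min at 37 deg C to detect potentiation. Beta-arrestin recruitment was read as enzyme-fragment luminescence after 1 h at ambient temperature. Full response was set by 57 uM dopamine.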
PINK1 modulator: A Quantitative High throughput Screen to Identify Chemical Modulators of PINK1 Expression | PINK1 immunofluorescence, high-content cytometry, 24 h | hit rate 0.2% among 410,000 | Potency, µM (highest dose often 76.6 µM), inactives show top-dose activation (PINK1 increase), hits mostly activators; active = well fitted activation curve with a large enough effect; inconclusive = small, poorly fitted or top-dose-only effect; inactive = flat fitted curve, though single readings scatter; cell line not stated here;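 note: potency is the fitted concentration of half-maximal effect; % of control where 0% means no effect; nearly all actives have a fitted effect of over 65% in size; a mitochondrial uncoupler was the plate control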
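Stable cell line treated 24 h with compounds at 5 concentrations (CCCP controls), then fixed and immunostained for PINK1 plus nuclear and cell stains; PINK1 immunofluorescence quantified by laser-scanning microplate cytometry.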
D2 agonist: Beta-Arrestin HTS for Positive Allosteric Modulators of the Human D2 Dopamine Receptor: Agonists; D(2) dopamine receptor (Homo sapiens), P14416; DiscoveRx PathHunter D2 beta-arrestin, luminescence, 90 min; 100% = 57 uM dopamine signal; activation, % (concentration not given with the values); hit rate 0.084% among 360,000; in the data active = activation above about 40%; inconclusive = about 15% to 40%; inactive = below about 15%; note: compound concentration not given in the record; the text of the record calls up to 30% inactive
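Agonist mode: compounds alone added to overnight-plated D2 PathHunter cells for 90 min at 37 C, with 57 uM final dopamine (EC100) defining full response. Beta-arrestin recruitment detected by chemiluminescent reagent, read after 1 h at ambient temperature.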
CtBP-E1A inh: qHTS Assay for Inhibitors of the CtBP/E1A Interaction; AID 651724, 2012; CtBP / adenovirus E1A interaction (AlphaScreen); hit rate 0.49% among 340,000; activity change, % (no concentration beside the values); AlphaScreen GST-E1A/His-CtBP binding, 1536-well; active compounds read low; control for the full effect not named in the record; in the data active means activity change below about -65%; inconclusive means about -30% to -65%; inactive means above about -30%; note: % is set by controls: 0 for no effect and ±100 for the full control effect
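Homogeneous bead-based format: GST-tagged E1A captured on glutathione donor beads, His-tagged CtBP on nickel acceptor beads; compounds precede bead addition by 2 h at 37 °C.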
* marks the source's active call; other numbers are inactive results; ? = inconclusive; / = no result given; & = joins results of further samples; [ ] = another dose, or the depositor's remark. Compounds were not picked by outcome. About 3.7% of those tested had a hit in this group.

canonical_smiles,Six1-Eya2 blk,Sfp PPTase inh,TRPV1 potentiator,D2 potentiator,PINK1 modulator,D2 agonist,CtBP-E1A inh
COc1ccc(C(=O)c2ccc(-c3ccc(OC)cc3)nc2)cc1,7,12%,18,-10,-0.2%,-3.8,/
COc1ccc(Cc2nnc(SCC(=O)Nc3cc(Cl)ccc3C)[nH]c2=O)cc1,-1,/,-2,-12,4.8%,0.3,-19
COCCNC(=O)C(C)OC(=O)c1nsc(Cl)c1Cl (centres undefined),7,10%,12,-8,-0.1%,-1.3,3
CCN1CCN(CC(=O)c2c[nH]c3ccc(C)cc23)CC1,-11,17%,-12,4,-0.8%,-5.6,-13
O=C(CN1CCN(c2ccccn2)CC1)Nc1ccc(OC(F)(F)F)cc1,12,11%,7,1,4.2%,8.8,7
COc1ccc(-c2csc(NC(=O)C3CSC4(C)CCC(=O)N34)n2)cc1 (centres undefined),7,/,1,0,1.4%,-1.7,9
COc1ccc(N2CC(C(=O)Nc3ccccc3N3CCCC3)CC2=O)c(OC)c1 (centres undefined),-3,/,-4,-21,?,-0.3,-1
O=P(O)(CCc1ccncc1)CN1CCCCC1,2,9%,/,4,/,2.2,3
CCc1nc2ccc(C(=O)NCCCN(C)C)cn2c1N(C)CCCc1ccccc1,-13,/,/,-22,2.4%,-4.3,-14
O=C(COC(=O)CNS(=O)(=O)c1ccc(Br)cc1Cl)Nc1ccc(N2CCOCC2)cc1,0,/,4,-7,2.3%,-0.3,-10
NC(=O)c1c(NC(=O)CCCC(=O)O)sc2c1CCCCCC2,1,79µM*,9,-9,2.0%,-2.6,0
Cc1ccc(C(=O)O/N=C(\c2ccccc2)c2cccnc2)cc1,0,4%,-1,6,3.3%,5.1,0
O=C(Nc1ccc(F)cc1F)c1csc(-c2cccs2)n1,3,18%,26,-5,1.9%,2.7,5
Cc1cc(C)n2c(NC3CCCC3)c(-c3cccnc3)nc2n1,-5,/,/,/,-0.2%,/,-15
Cc1ccc(C(=O)Nc2ccccc2-c2ccccc2)o1,-5,-2%,26,-5,1.5%,-2.7,6
O=C(Nc1ccc(Cl)c(C(F)(F)F)c1)C1CCCN(S(=O)(=O)c2cnc[nH]2)C1 (centres undefined),-10,17%,-7,-13,-2.0%[38.3 µM],-1.0,-5
O=C(Nc1c(C(=O)O)[nH]c2ccc(F)cc12)c1cccc(C(F)(F)F)c1,-25,8%,6,-1,-0.9%,-2.4,-14
CC(CCc1ccccc1)NS(=O)(=O)c1ccccc1Cl (centres undefined),-5,-1%,6,-8,6.4%,-3.3,-6
CCc1nnc(NC(=O)c2cccc(C(=O)Nc3nnc(CC)s3)n2)s1,-22,22%,25,-11,-1.9%,-3.1,?
CC(Sc1nnc(Cc2ccccc2)n1C)C(=O)NC1CC1 (centres undefined),-1,/,-6,-5,2.0%,-4.4,2
CCOC(=O)N(C)C[C@H]1OCc2cnnn2CCCC(=O)N([C@@H](C)CO)C[C@H]1C,5,/,/,5,-1.7%,-2.0,5
Cc1cc2ccccn2c1C(=O)c1ccc(Cl)cc1,39,?,15,-7,?,-4.0,10
CCN(CC)S(=O)(=O)c1ccc(N/N=C/c2cc(OC)ccc2O)nc1,?,13%,0,-9,4.1%,-2.7,?
Fc1ccc(-c2nnn3c2nc(NCc2ccccc2)c2ccccc23)cc1,4,14%,?,-2,-1.9%&-0.7%,-1.6,-5
CC(=O)NC1C(Oc2ccc(C=O)cc2)OC(COC(C)=O)C(OC(C)=O)C1OC(C)=O (centres undefined),-2,3%,9,-5,-1.7%,2.1,-3
CCC(C)(C)n1nnnc1C(c1ccc2ncccc2c1)N1CCN(c2nc3ccccc3s2)CC1 (centres undefined),-17,-14%,13,-12,?,-1.3,-12
COc1ccc(S(=O)(=O)N(CC(=O)N2CCOCC2)Cc2ccccc2)cc1,6,-3%,17,0,-1.2%[38.3 µM],-0.5,10
COc1ccc(C2Nc3ccccc3C(=O)N2Cc2ccccc2)cc1CN1CCOCC1 (centres undefined),-9,21%,/,-7,1.7%,-2.9,-2
Cc1nc2nc(NC(=O)c3ccco3)nn2c(C)c1Cl,0,6%,-1,18,0.0%,-1.0,7
N#Cc1c(N2CCCC2)nc(N)c2c(N)nc(N3CCCC3)cc12,-29,-14%,8,24,?,4.5,?
Cc1cc(C)n(-c2ncnc3sc4c(c23)CCCC4)n1,0,5%,-10,-17,/,-3.9,-13
Cc1c(C(=O)OCC(=O)N2CCCC2=O)oc2ccccc12,5,/,-12,0,1.8%,-3.5,8
CSc1ccc(/C=C(\NC(=O)c2ccc(C)cc2)C(=O)Nc2cccc(C)c2)cc1,-1,18%,11,-28,-0.3%,-3.1,0
CC(=O)c1cccc(NC(=O)CCNS(=O)(=O)c2cccc3nonc23)c1,7,-1%,15,-8,2.5%,-4.3,3
Cc1cc(C)c(S(=O)(=O)c2ccccc2C(C)C)c(=O)[nH]1,3,10%,-4,-3,0.8%,-0.7,7
Cc1ccc(Cn2ccc(=O)c(OCc3ccccc3)c2C)cc1,7,16%,2,-2,-1.2%,-3.3,3
COc1ccc(OC)c(Nc2nc(C)nc3c2oc2ccccc23)c1,2,?,-19,-2,7.0%,4.2,/
Cc1ccc(N(Cc2ccc(C(=O)NCC3CCCO3)cc2)S(C)(=O)=O)cc1C (centres undefined),-2,15%,-4,-5,0.8%,-2.0,-3
Cc1cccc(-c2nc(NCCCN3CCOCC3)c3ccccc3n2)c1,-9,?,6,-20,4.0%,-1.0,-16
O=C(C1CCC(Cn2c(=O)[nH]c3ccccc3c2=O)CC1)N1CCN(c2ccccc2)CC1 (centres undefined),-10,11%,-5,0,-0.4%,-1.3,-3
O=C(NNC(=O)c1ccc2ccccc2c1)c1cccc(Cl)c1,2,/,/,-10,-2.1%,-1.4,-6
O=C(Nc1ccc2c(c1)OCO2)c1cc(-c2cccc(O)c2)on1,-15,-4%,-2,0,4.5%,-0.8,2
COc1ccc(-c2noc(C3CCCN(C(=O)c4ccccc4)C3)n2)cc1 (centres undefined),-2,14%,-7,-7,-0.8%,1.1,1
COc1ccc(/C=C/C(=O)c2ccc([N+](=O)[O-])o2)cc1OC,-1,/,9,11,8.5%,6.7,2
COc1ccc2c(c1)O/C(=C\c1ccccc1C)C2=O,5,?,2,-3,11%,4.7,3
CCOC(=O)C1CCCN(C(=O)CN2CCN(Cc3ccc(Cl)cc3)C2=O)C1 (centres undefined),2,13%,1,-25,0.4%,0.4,3
COCCn1cc(C(=O)NCc2cccs2)c2c3ccccc3n(C)c2c1=O,1,-13%,1,-4,?,-1.0,3
Cc1cccc(NC(=O)CSc2nnc(Cn3cnc4ccccc43)o2)c1,-3,6%,-4,-13,0.5%[38.3 µM],1.4,-10
CCCNC(=O)c1cc(C2CCCCN2C(=O)c2ccc(C(C)C)cc2)on1 (centres undefined),0,/,/,-3,-0.1%,4.4,-20
CCn1c(CNC(=O)c2cccs2)nnc1SCC(=O)Nc1ccc(Cl)cc1,1,6%,10,-10,-0.1%,0.5,-15
Cc1nn(-c2ccccc2)nc1CNC(=O)C1CC1,0,11%,-20,-5,-0.2%,-2.5,2
COc1ccccc1NC(=O)CN1C(=O)NC2(CCCCCCC2)C1=O,8,18%,4,-5,-0.9%,1.5,7
Cc1ccc(NC(=C(C#N)C#N)c2ccccc2)cc1,-2,/,/,1,0.6%,0.9,-1
Cc1cccc(NC(=O)COc2coc(CN3CCN(c4ccccc4)CC3)cc2=O)c1C,-1,/,-3,-3,-5.1%,?,-8
O=C(Nc1ccncc1)C1(c2ccccc2)CCCC1,1,-1%,1,3,0.2%[38.3 µM],1.4,1
CCOc1cccc(-c2c(C(=O)N/N=C(\C)c3ccncc3)nnn2-c2nonc2N)c1,1,15%,4,-11,-0.4%,-3.2,3
COc1cccc(N(CC(=O)Nc2cccc(F)c2)S(C)(=O)=O)c1,-2,8%,-11,-14,-1.1%,-1.7,-1
CCOC(=O)N1CCN(C(=O)C2CC(=O)N(c3ccc(OC)cc3)C2c2ccc(OC)cc2)CC1 (centres undefined),1,10%,6,0,1.7%,-0.6,5
CCCN1C(=O)c2cc(C(=O)Nc3ccccc3C)ccc2C1Nc1ccccc1C (centres undefined),-9,15%,-17,-3,2.4%,-2.6,-1
Cc1cc(Nc2ccc(Br)cc2F)n2ncnc2n1,4,1%,13,-5,2.6%,-1.6,-2

(further entries)
canonical_smiles,Six1-Eya2 blk,Sfp PPTase inh,TRPV1 potentiator,D2 potentiator,PINK1 modulator,D2 agonist,CtBP-E1A inh
CCOC(=O)c1cc(NC(=O)c2ccc(Cl)cc2)c(=O)n2c1oc1ccc(Cl)cc12,3,2%,25,-20,15%[38.3 µM],-0.3,7
COc1cc(C)nc(N2CCCC(C(=O)Nc3cccc(Cl)c3C)C2)n1 (centres undefined),-1,3%,6,-14,7.4%,-3.1,-1
O=C(COC(=O)Cn1cnc2ccccc21)NCCCc1ccccc1,7,4%,-23,1,0.5%,-2.3,9
CCCCN(CC)CCNC(=O)c1ccc2c(Cl)c3c(nc2c1)CCC3,-19,2%,9,-20,-1.2%,-4.8,-1
O=c1c2ccccc2nc(-c2ccco2)n1/N=C/c1ccco1,-9,11%,-30,-6,5.0%,0.1,-7
